RanGTP-Imp inh = inhibitors of RanGTP-importin-beta interaction, primary screen, biochemical, FRET, CFP-Ran, YFP-importin-beta, homogeneous; Ran GTPase (GTP-bound) - importin-beta complex; cell-free CFP-Ran/YFP-importin-beta FRET ratio; inhibition, % (no concentration beside the values); hit rate 1.1% among 300,000;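 active = most replicates above 15%; inconclusive = exactly half above 15%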;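 note: 0% = DMSO wells and 100% = Ran loaded with GDP instead of GTP; wells of about 40 µL received 100 nL stock; the first replicate is given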
A1 inh = caspase 3/7 activation in MEF A1-2A-BIM cells, primary screen, A1 inhibitor project, cell-based, luminescence, HTS. Caspase-Glo 3/7 luminescence, 3 h; percent of clofoctol response, vehicle zero. caspase activation, % (concentration not given with the values). hit rate 0.066% among 330,000;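 active = over half of replicate activation scores above 10%, or exactly half above 10 with the replicate mean above 10; inconclusive = replicate mean below 10 yet half the replicates above 10; inactive = over half of replicates below 10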;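 note: wells of about 30 µL received 50 nL stock; many hits fall short of the cut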
UCH37 inh = inhibitors of human UCH37 deubiquitinase, primary screen, biochemical, Ub-AMC cleavage, fluorescence; hit rate 0.33% among 330,000; inhibition, % (no concentration beside the values); purified proteasome/UCH37; AID 588478, 2011;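 active = mean of two replicates above 20%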;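 note: 0% = compound-free wells with enzyme and 100% = wells lacking proteasome; stock transfer was 100 nL into about 20 µL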
Target sequence (Q9Y5K5 whole entry, looked up): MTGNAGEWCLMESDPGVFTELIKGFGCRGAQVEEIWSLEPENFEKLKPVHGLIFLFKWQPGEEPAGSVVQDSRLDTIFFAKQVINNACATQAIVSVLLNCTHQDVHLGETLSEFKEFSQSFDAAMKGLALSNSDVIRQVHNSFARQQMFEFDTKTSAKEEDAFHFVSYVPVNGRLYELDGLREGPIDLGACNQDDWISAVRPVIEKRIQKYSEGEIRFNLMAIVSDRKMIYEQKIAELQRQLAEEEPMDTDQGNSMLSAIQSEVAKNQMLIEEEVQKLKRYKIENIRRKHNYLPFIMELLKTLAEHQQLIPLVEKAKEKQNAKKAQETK
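Material: Human UCH37 enzyme supplied as purified proteasome complex | Schedule: 30 min compound-proteasome preincubation then 25 min substrate reaction, room temperature | Detection: AMC fluorescence from Ub-AMC cleavage, excitation 355 nm, emission 460 nm | Benchmarks: Wells without proteasome as full block, compound-free enzyme plus substrate as uninhibited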
Beta cell apopt = inhibitors of cytokine-induced beta cell apoptosis, primary screen, luminescence; INS-1E cytokine-induced death, ATP luminescence, 48 h; percent of positive-control rescue, neutral wells zero; protection from apoptosis, % (test concentration not listed); hit rate 0.8% among 300,000;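 active = all replicates at 75% or more, or half of them and the mean; inconclusive = half reach 75% but not the mean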;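 note: 0% = cytokine-treated negative control wells and 100% = positive control rescue; higher means more ATP so stronger rescue from cytokine killing; wells of about 40 µL received 100 nL stock; the first replicate is given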
B2AR ag = beta2AR agonists driving receptor internalization, primary screen, cell-based, FAP fluorogen, flow cytometry. Beta-2 adrenergic receptor (Homo sapiens), P07550. Am2.2-beta2AR cells; reference of the scale not given here. response, % (test concentration not listed). hit rate 0.43% among 340,000. AID 504454, 2011;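 active = response above a set limit, near 3 SD of response in nonfluorescent compounds, cut at about 42% in these data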;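 note: stock transfer was 100 nL into about 11 µL; a reference agonist was the positive control; negative values mostly stem from fluorescent compounds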
Target sequence (P07550 whole entry, looked up): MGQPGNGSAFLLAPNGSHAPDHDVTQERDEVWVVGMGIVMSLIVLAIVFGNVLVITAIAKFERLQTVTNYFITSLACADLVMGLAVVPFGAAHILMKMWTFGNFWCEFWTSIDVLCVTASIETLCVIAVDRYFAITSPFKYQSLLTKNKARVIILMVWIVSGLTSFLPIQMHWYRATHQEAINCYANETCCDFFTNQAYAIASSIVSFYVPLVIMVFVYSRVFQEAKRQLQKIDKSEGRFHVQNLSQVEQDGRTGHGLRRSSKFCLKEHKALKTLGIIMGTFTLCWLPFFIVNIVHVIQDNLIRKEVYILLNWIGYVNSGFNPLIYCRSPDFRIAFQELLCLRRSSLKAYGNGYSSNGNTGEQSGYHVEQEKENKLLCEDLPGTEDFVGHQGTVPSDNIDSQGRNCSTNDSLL
LANA-H2A inh = blockers of LANA interaction with H2A/H2B – biochemical, FP readout, HTS, primary screen; Protein LANA1 (Human herpesvirus 8 type P (isolate GK18)), Q9QR71; cell-free LANA-H2A/H2B peptide, fluorescence polarization; inhibition, % (test concentration not listed); hit rate 0.6% among 320,000; in the data active = inhibition mostly above about 10%, no sharp cut-off; inactive = mostly below about 6.7%;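 note: stock transfer was 7.5 nL into about 10 µL; 0% = median of vehicle wells and 100% = median of positive control wells; one replicate is shown; the record names a cut of 25% in any replicate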
T cruzi repl = inhibitors of intracellular T. cruzi growth, primary screen, luminescence, NIH3T3 host cells; T. cruzi beta-gal in NIH3T3, 90 h; inhibition, % (no concentration beside the values); hit rate 1.4% among 300,000; AID 1885, 2009;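 active = mean inhibition across valid replicates above about 55%, limit read from the data; inconclusive = mean below that limit but half or more replicates reach it; inactive = mean below it, under half of replicates reach it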;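 note: signal also drops with host cell toxicity which is not excluded here; 0% = plate median of DMSO wells and 100% = zero luminescence signal; higher percent means less beta-gal luminescence so fewer parasites; stock transfer was 50 nL into about 50 µL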
Calb FLC = C. albicans growth inhibition with fluconazole, primary screen, CaCi-2 strain, Alamar Blue fluorescence; hit rate 0.57% among 300,000; C. albicans CaCi-2 (fluconazole-resistant clinical isolate) + fluconazole, 48 h; growth inhibition, % (no concentration beside the values); AID 1979, 2009;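 active = most replicates above 75%; inconclusive = exactly half above 75%; inactive = most below 75%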;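 note: all wells also contain fluconazole at 8 µg/ml as a sub-toxic cotreatment; 0% = median of DMSO wells and 100% = median of geldanamycin control wells; wells of about 8 µL received 7.5 nL stock; the first replicate is given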
Active calls of the source: *; i = inactive; ? = inconclusive; / = no result given.

Order of results – RanGTP-Imp inh	A1 inh	UCH37 inh	Beta cell apopt	B2AR ag	LANA-H2A inh	T cruzi repl	Calb FLC
Cc1cccc(N2CCN(C(=S)Nc3ccc4nc5n(c(=O)c4c3)CCCCC5)CC2)c1C
→ /	0.1	4.7	16	-3	1.2	/	26
CC(C)NC(=O)C(=O)NCC(c1ccc2c(c1)OCO2)N1CCOCC1 (stereo not given)
→ -5.4	-0.9	3.5	2	2	-2.6	-7	-20
Cn1nc(C(=O)N2CCN(c3cccc(Cl)c3)CC2)c2c1-c1ccccc1S(=O)(=O)C2
→ ?	0.4	6.1	/	5	-2.1	5	32
Clc1ccc(-c2cc(COc3ccccc3)on2)cc1
→ 6.0	1.1	1.2	5	4	-3.1	-20	-30
Cc1c(NC2(C#N)CCCCC2)c(=O)n(-c2ccccc2)n1C
→ ?	-0.6	2.1	-6	8	-1.4	-8	-7
CN(C)c1nc(NC(C)(C)C)nc(SCC(=O)Nc2ccccc2)n1
→ 0.1	0.1	1.8	4	-8	2.1	10	-17
Cc1nc(Nc2cccc(Cl)c2)c2oc3ccccc3c2n1
→ 3.5	-0.4	-110	24	19	2.9	8	18
CCCCNC(=S)N/N=C1\C(=O)c2cccc3cccc1c23
→ -2.2	-0.1	3.6	3	-5	-4.5	27	10
Cc1cc(O)c(CN2CCN(S(=O)(=O)c3cccs3)CC2)cc1C(C)C
→ /	1.4	4.0	-1	7	-9.2	/	/
C=CCn1c(CCNC(=O)c2cccs2)nnc1SCC(=O)Nc1cccc(C(C)=O)c1
→ 2.3	-1.0	3.0	-1	-3	5.4	17	-1
CCOC(=O)C1C(c2ccc(O)c(O)c2)NC(=S)NC1(O)C(F)(F)F (stereo not given)
→ -1.0	0.6	1.1	-2	3	-2.2	-16	-3
Cc1cccc(C(=O)Nc2cccc(C(=O)NC3CCCC3)c2)c1
→ 3.2	-0.6	1.9	2	0	1.5	12	1
O=C(COC(=O)c1ccccc1O)Nc1cccc2ccccc12
→ /	0.1	-8.2	0	-2	1.9	/	/
COc1ccc(C(=O)Nc2ccc(OC)c(OC)c2)cc1
→ 1.7	-2.6	1.8	6	0	-1.7	1	-14
O=C(CSc1n[nH]c(=O)[nH]c1=O)c1ccccc1
→ -2.5	0.8	4.2	-3	-17	0.9	-23	-12
Cc1ccccc1CSc1nnc(-c2ccncc2)n1C
→ -3.0	0.5	0.8	-4	1	-2.0	-6	3
CCOC(=O)c1nc(NCc2cccnc2)c2ccccc2n1
→ 1.3	0.7	3.7	4	0	0.7	-35	-7
Cc1cccn2c(=O)c3cc(C(=O)NC4CCCCC4)c(=N)n(Cc4ccc(F)cc4)c3nc12
→ -1.9	0.0	-182	5	78*	-0.3	13	10
CN(CC(=O)Nc1sccc1C#N)Cc1ccccc1
→ 4.2	-0.3	3.0	-8	4	-6.0	-5	0
COC(=O)[C@H]1[C@H]2C[C@@H]3c4[nH]c5cc(OC)ccc5c4CCN3C[C@H]2C[C@@H](OC(=O)c2ccc(N)cc2)[C@@H]1OC
→ 11	0.1	-14	6	-11	-2.2	58*	3
CCCCn1c(SCC(=O)NCCc2ccc(OC)c(OC)c2)nc2c1c(=O)n(C)c(=O)n2C
→ -1.1	0.2	3.7	-3	5	-2.5	10	-4
CCOc1cc(-c2c(C)c(CC)nc(N)c2C#N)ccc1O
→ 1.1	0.4	-0.2	4	69*	-4.1	/	7
CC1(C)CC(=O)C2=C(C1)Nc1[nH]c(=S)[nH]c(=O)c1C2c1ccccc1 (stereo not given)
→ 3.8	-0.1	-2.9	3	5	-6.0	0	22
CCOc1ccc(CN2CCN(Cc3[nH]c4ccc(OC)cc4c3C)CC2CCO)cc1 (stereo not given)
→ 2.3	0.4	-0.7	/	21	0.1	72*	21
C/C(Cl)=C\Cn1c(N2CCCCCC2)nc2c1c(=O)n(C)c(=O)n2C
→ /	-0.1	3.0	13	-9	0.3	/	/
CCOc1cc(CNc2ccc(N(C)C)cc2)cc(Br)c1OCC(=O)NC(C)(C)C
→ -1.2	0.5	0.5	-3	-9	1.9	50	-12
COc1ccc(OC)c2nc(-c3cccnc3)ccc12
→ -2.2	0.2	0.9	-5	0	-3.2	13	-6
Cn1nc(-c2ccccc2)c(-c2nc(-c3cccc(Cl)c3)no2)c1Cl
→ 1.0	1.1	4.9	1	4	-2.8	1	0
CC(=O)Nc1ccccc1NS(=O)(=O)c1ccccc1[N+](=O)[O-]
→ -2.5	0.4	4.7	0	6	-0.7	4	-9
COCc1cc(C)nc(Nc2ccc(C)c(C)c2)c1C#N
→ 2.8	0.2	-30	2	-4	1.0	30	2
Nc1nc(NCc2ccccc2)nc(NCCO)c1[N+](=O)[O-]
→ 4.3	0.3	12	-2	-2	1.5	1	9
COc1ccc(C2Nc3ccc4ccccc4c3-c3c2c(=O)oc2ccccc32)cc1 (stereo not given)
→ 0.4	8.7*	-324	14	23	1.4	66*	7
CC(=O)c1ccc(-c2ccc(C(=O)N3CCC(C(N)=O)CC3)o2)cc1
→ /	1.2	-276	-1	5	-1.3	3	4
COC(=O)c1cc(OC)c(OC)cc1NC(=S)N1CCCC(CO)C1 (stereo not given)
→ 9.0	0.9	1.6	-1	3	1.2	-16	-2
CCN(CC)c1ccc(N/C(N)=N/c2nc(C(F)(F)F)cc(=O)[nH]2)cc1
→ -0.5	1.2	-0.8	0	6	0.5	-21	-13
COCOc1ccc(C=O)c(O)c1
→ ?	-0.7	2.0	-2	6	0.6	-9	-2
O=C(CCCCn1c(=S)[nH]c2ccsc2c1=O)NCc1ccc2c(c1)OCO2
→ 0.5	0.3	3.4	4	-6	/	9	-9
O=C(CCN1C(=O)c2cccc3cccc(c23)C1=O)NCC1CCCO1 (stereo not given)
→ 0.0	-0.2	-71	0	5	-0.2	-6	-11
N#Cc1c(-c2ccccc2Cl)cc(C2CC2)nc1N
→ /	-0.2	-5.1	-1	-4	-2.1	/	/
Cc1ccc(C(=O)C2=C(O)C(=O)N(CCCN3CCOCC3)C23C(=O)N(C)c2ccccc23)o1 (stereo not given)
→ -0.8	0.1	5.9	0	-1	6.4	-12	-4

The final 4 entries of the part above are carried over, then new ones follow:
Order of results – RanGTP-Imp inh	A1 inh	UCH37 inh	Beta cell apopt	B2AR ag	LANA-H2A inh	T cruzi repl	Calb FLC
O=C(CCCCn1c(=S)[nH]c2ccsc2c1=O)NCc1ccc2c(c1)OCO2
→ 0.5	0.3	3.4	4	-6	/	9	-9
O=C(CCN1C(=O)c2cccc3cccc(c23)C1=O)NCC1CCCO1 (stereo not given)
→ 0.0	-0.2	-71	0	5	-0.2	-6	-11
N#Cc1c(-c2ccccc2Cl)cc(C2CC2)nc1N
→ /	-0.2	-5.1	-1	-4	-2.1	/	/
Cc1ccc(C(=O)C2=C(O)C(=O)N(CCCN3CCOCC3)C23C(=O)N(C)c2ccccc23)o1 (stereo not given)
→ -0.8	0.1	5.9	0	-1	6.4	-12	-4
Cn1c(Cl)c(/C=N/OC(=O)c2ccc(Cl)cc2)c2ccccc21
→ 3.1	-0.4	/	-8	-1	-4.9	5	-11
O=C(NN=C1C2CC3CC1CC(Cl)(C3)C2)c1cccs1
→ -0.3	-0.1	3.1	6	-9	-3.5	-8	-3
CC(C)(c1ccccc1)c1ccc(OCC(O)CN2CCCC2)cc1 (stereo not given)
→ 1.4	0.0	-0.3	/	5	-0.9	10	-9
Cc1ccc(C)c(OCC(=O)NCCN(C)C)c1
→ 4.0	0.5	3.0	/	0	-3.3	36	7
O=C(COC(=O)c1cc(S(=O)(=O)N2CCCCC2)ccc1N1CCOCC1)c1ccc(F)cc1
→ -1.0	-0.4	2.0	0	-6	-5.2	13	-11
CCCCN(CC)CCCNC(=O)c1cc2cc3ccc(OC)cc3nc2o1
→ -1.9	0.4	i	1	1	-1.0	54	-1
O=C(NC1CC1)C1CCN(C2CCN(C(=O)/C=C/c3cccs3)CC2)CC1
→ 3.1	0.6	3.4	-2	8	-0.8	3	7
COCCCN(C(=S)Nc1c(C)cc(C)cc1C)C(C)c1ccccn1 (stereo not given)
→ ?	-1.1	4.1	-1	-7	5.4	20	2
Nc1c(C(=O)Nc2ccc3c(c2)OCCO3)nnn1Cc1cccc(F)c1
→ 2.4	-1.3	2.1	3	-1	0.2	-34	4
Cc1ccc(S(=O)(=O)N2CCN(CC(=O)N/N=C/c3ccco3)CC2)cc1
→ 6.2	-0.4	/	-2	28	2.1	4	7
Cn1c(N)c(C(=O)COC(=O)c2cncc(Br)c2)c(=O)n(C)c1=O
→ -0.7	0.5	0.4	-3	-3	2.4	-15	-11
CC(=O)c1ccc(NC(=O)COC(=O)c2ccc(F)cc2F)cc1
→ -1.3	0.6	5.6	2	6	-3.5	5	-3
COc1cc(NC(=O)C2CC(c3cccc(OC)c3OC)=NO2)cc(OC)c1OC (stereo not given)
→ -1.9	-0.9	1.6	6	-7	-10	-21	3
Cc1ccc(NC(=O)c2cc(N(C)C)ccc2[P+](=O)O)cc1
→ 3.0	0.9	-3.6	/	-3	-2.2	-15	4
Cc1c(Cl)cccc1NC(=O)CNC(=O)C1CC(=O)N(CCc2ccccc2)C1 (stereo not given)
→ /	-0.7	3.5	2	-7	-0.4	/	/
CCOc1ccccc1-c1nc2c([nH]1)c(=O)n(C)c(=O)n2C
→ -2.8	0.6	-33	-3	-23	-1.7	-15	19
COc1cc(NC(=O)C2CC(=O)NC3=C2C(=O)CCC3)c(OC)cc1Cl (stereo not given)
→ 5.7	0.2	4.6	-9	-6	1.6	-6	-25
Cc1cc(=O)n2nc(N3CCC(C(=O)N4CCN(c5ccccc5)CC4)CC3)sc2n1
→ ?	-0.9	4.8	-8	7	5.7	8	-4
O=C(Nc1cc2c3c(c1)CC(=O)N3CCC2)C1CC1
→ 4.1	1.4	-1.9	2	6	3.7	-7	-4
O=C(COC(=O)/C=C/c1ccccc1[N+](=O)[O-])Nc1ccc(OC(F)F)cc1
→ -0.4	1.3	4.9	-2	-4	-5.1	12	6
COc1ccc(COC(=O)N/N=C(\C)CC(=O)NCc2ccc(Cl)cc2)cc1
→ -3.1	0.2	/	-2	-2	3.7	-8	-12
CCOC(=O)/C=C/C(=O)NNC(=O)c1ccccc1Cl
→ -0.3	0.9	-1.7	-9	10	-1.2	-27	-16
NS(=O)(=O)c1ccc(NC(=O)Cn2ncc3c2-c2ccccc2OC3)cc1
→ 4.9	0.0	1.1	3	2	4.3	-7	11

High-throughput results deposited in PubChem by several laboratories.
